Source: PubChem (National Center for Advancing Translational Sciences (NCATS))
AmpC inh no det: blocks E. coli AmpC beta-lactamase in absence of detergent; AmpC nitrocefin hydrolysis, absorbance 480 nm, no detergent; potencies from a single point are estimates; actives 1.8% (n = 71,000); Potency, µM (highest dose often 28.7 µM), for the others: at the highest dose activity change, negative = inhibition; P00811; active = falling curve, for most hits resting on a single point; inconclusive = weak or doubtful change; inactive = flat or rising curve; also: % of control where 0% means no effect; about half of the hits show no inhibition at the top dose; a quarter of the inactives give rising signals
Target sequence (P00811 whole entry, looked up): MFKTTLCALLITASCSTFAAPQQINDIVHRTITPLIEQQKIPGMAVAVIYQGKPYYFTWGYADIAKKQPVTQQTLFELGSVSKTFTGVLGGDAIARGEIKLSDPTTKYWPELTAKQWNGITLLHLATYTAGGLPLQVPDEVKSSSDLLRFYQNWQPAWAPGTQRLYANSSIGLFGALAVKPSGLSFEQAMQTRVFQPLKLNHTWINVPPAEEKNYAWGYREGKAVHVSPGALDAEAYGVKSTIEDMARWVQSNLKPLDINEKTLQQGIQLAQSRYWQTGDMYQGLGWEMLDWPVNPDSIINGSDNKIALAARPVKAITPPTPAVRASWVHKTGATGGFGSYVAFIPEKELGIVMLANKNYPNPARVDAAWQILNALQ
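AmpC, 20 mM phosphate pH 7.0; 15 min cpd preinc, RT; start with nitrocefin (800 uM stock); A480 kinetic read, 20 s intervals, 4 min. No-enzyme wells = negative control.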
Starred values were filed as active, the others as inactive; ? = inconclusive; & = joins results of further samples; [ ] = dose if it differs, or a comment. Potency is read from the fitted curve at half-maximal effect. Not all compounds are listed; rates above refer to the full screens.

Preview:
SMILES | AmpC inh no det
COc1ccccc1NC(=O)Cc1cccs1 | -21%
CCOC(=O)/N=C(/NC(=O)Nc1ccc(C(=O)OCC)cc1)OC | -5%
O=C(CS(=O)(=O)Cc1ccccc1)Nc1ncccn1 | 3%
COc1cc(S(=O)(=O)N(C)C)ccc1F | -5%

The listing, from the start:
SMILES | AmpC inh no det
COc1ccccc1NC(=O)Cc1cccs1 | -21%
CCOC(=O)/N=C(/NC(=O)Nc1ccc(C(=O)OCC)cc1)OC | -5%
O=C(CS(=O)(=O)Cc1ccccc1)Nc1ncccn1 | 3%
COc1cc(S(=O)(=O)N(C)C)ccc1F | -5%
CC(=O)c1ccc(N2CCN(C(=O)c3ccc(OCc4c(C)noc4C)cc3)CC2)cc1 | 100%
CCCC(OC(=O)CN1C(=O)COc2ccccc21)C(=O)NC1CCCC1 (stereo not drawn) | 25%
O=C(O)CCC(=O)Nc1ccccc1C(=O)NC1CCCCC1 | -6%
CSCCNC(=O)c1ccc(C(C)(C)C)cc1 | 7%
CCN(CC)C(=O)CSc1nc2ccccc2c(=O)n1-c1ccccc1OC | 61%
CC1CCN(C(=O)CSc2nnc(CNC(=O)c3ccco3)o2)CC1 | 8%
Cc1cc(NC(=O)C2CCCCC2C(=O)O)no1 (stereo not drawn) | -7%
COCCNS(=O)(=O)c1ccc(OCC(=O)OC)c(Cl)c1 | 5%
O=C1CSC(=NC2CCCCC2)N1 | -8%
COc1cccc(N(CC(=O)O)S(=O)(=O)c2ccccc2)c1 | -1%
O=C(CCN1C(=O)COc2ccccc21)NCc1cccs1 | 4%
CC1(C)O[C@@H]2O[C@H]([C@@H]3COC(C)(C)O3)[C@H](N)[C@H]2O1 | -16%[5.75 µM]
Cc1c(-c2nc(N)nc(C3CC3)c2C)nc(N)nc1C1CC1 | -1%[5.75 µM]
COCC(=O)N(C)c1nnc(-c2ccccn2)s1 | -16%
COc1ccccc1-c1cc(C(=O)NCCN2CCOCC2)no1 | 15%
CN(C(=O)c1cccnc1)c1nnc(-c2ccccn2)s1 | 0%
CSc1cccc(NC(=O)OC2CCCCCCCCCCC2)c1 | -7%[5.75 µM]
COc1ccc(NC(=O)CN2CCN(CC(=O)Nc3ccc4c(c3)OCO4)CC2)cc1 | 33%
COc1cc(NC(=O)c2cc3ccccc3o2)c(OC)cc1Cl | -3%
CCOc1cccc(C(=O)N(Cc2ccc(F)cc2)C2CCS(=O)(=O)C2)c1 (stereo not drawn) | 32%
COc1ccc(CC(NC(C)=O)C(=O)NC2CCN(c3c4c(nc5ncnn35)CCC4)CC2)cc1 (stereo not drawn) | 33%
COc1ccccc1OCc1nnc(SCC(=O)NCc2ccco2)n1Cc1ccco1 | 49%
COc1ccc(S(=O)(=O)N2CCN(C(=O)[C@@H]3CCC(=O)N3C3OC(=O)c4ccccc43)CC2)cc1 (stereo partly drawn) | 39%
CS(=O)(=O)N(C(=O)NC(=O)NC1CCS(=O)(=O)C1)C1CCCCC1 (stereo not drawn) | -6%
c1cc2c(cc1Nc1nc(-c3ccc4c(c3)OCO4)cs1)OCCO2 | ?
O=C(Nc1ccc(N2CCCC2)cc1)c1ccc(Br)o1 | -12%
COc1ccc(CN2CCN(C(=O)CC(C)C)CC2)c2ccccc12 | 128%
CCOC(=O)c1[nH]c(C)c(/C=N/O)c1C | -10%
COc1ccc(Cn2nnnc2C(c2cccs2)N2CCSCC2)cc1 (stereo not drawn) | 13%
N#Cc1c(SCC(N)=O)nc2c(c1-c1ccc(O)cc1)CCCC2 | -15%
Cc1c(C(=O)Nc2ccncc2)oc2ccccc12 | 16%
Brc1c(CSc2nncn2-c2ccccc2)nc2sccn12 | 3%
CCC(C)NC(=O)C(NS(=O)(=O)c1cccc2nsnc12)c1ccccc1 (stereo not drawn) | -3%
CN1C(=O)N(C)C(NC(=O)Nc2ccccc2)C1NC(=O)Nc1ccccc1 (stereo not drawn) | 6%
CC(CN1CCCC1)OC(=O)COc1ccccc1 (stereo not drawn) | 2%
CC(C)CC(=O)Nc1ccc(-c2cn3ccsc3n2)cc1 | -6%
COC(=O)[C@H](C)NC(=O)Nc1ccc(C)c(C)c1 | -6%
c1ccc2nc(-c3nc4ccccc4[nH]3)ccc2c1 | -12%
c1ccc(C2=Nn3c(nnc3-c3n[nH]c4c3CCC4)SC2)cc1 | 8%
C=CCN1C[C@H](C)N([C@H](c2ccc(C(=O)N(CC)CC)cc2)c2cccc(O)c2)C[C@H]1C | 68%
C=C(C)c1cccc(C(C)(C)NC(=O)Nc2ncccn2)c1 | 23%
CCc1oc(C(=O)O)cc1CN(CC)CC | -4%
CC(C)N(C(=O)CN(C#N)c1nc(N(C)C)nc(N(C)C)n1)c1ccccc1 | 7%
COc1ccc(OC)c(C2C(C(C)=O)=C(O)C(=O)N2c2ccc(O)cc2)c1 (stereo not drawn) | -5%
Clc1ccc(Cn2ncc3c(N4CCCCC4)ncnc32)cc1 | 31%
Cn1c(NCCO)nc2c(c1=O)C1(CCCCC1)Cc1ccccc1-2 | 160%
CCOC(=O)NC(=O)CSc1nnnn1-c1ccc(Cl)cc1 | -16%
O=C(O)c1cc(/C=N\O)ccc1OCc1ccccc1 | -11%
ClC(Cl)=C(Cl)Cl | -9%&-14%
Oc1ccc2c3c1O[C@H]1[C@@H](O)CC[C@]4(O)[C@H](C2)N(CC2CCC2)CC[C@@]314 | -7%[12.8 µM]
O=C1CC(c2ccccc2)Sc2ccccc2N1 (stereo not drawn) | -4%
COc1ccc(C2C(C(=O)Nc3ccccc3OC)=C(C)Nc3nnnn32)c(OC)c1 (stereo not drawn) | 35%
COc1ccc(OCCC(=O)OCC(=O)NCc2ccco2)cc1 | 20%
CCOc1cccc(NC(=O)c2ccc(S(=O)(=O)N(C)C)cc2)c1 | 8%
O=S1(=O)N=C(Nc2ccc(N3CCOCC3)cc2)c2ccccc21 | -1%
Cc1c(C(N)=O)c(N)c(C(=O)c2ccccc2)n1-c1ccccc1 | 0%

Some of the entries so far, field by field.
Compound: COc1ccc(OC)c(C2C(C(C)=O)=C(O)C(=O)N2c2ccc(O)cc2)c1 (stereo not drawn)
  AmpC inh no det: -5%
Compound: ClC(Cl)=C(Cl)Cl
  AmpC inh no det: -9%&-14%
Compound: CCc1oc(C(=O)O)cc1CN(CC)CC
  AmpC inh no det: -4%
Compound: Cn1c(NCCO)nc2c(c1=O)C1(CCCCC1)Cc1ccccc1-2
  AmpC inh no det: 160%

More entries:
SMILES | AmpC inh no det
CC1(c2cccs2)CC(c2cccs2)=C(C#N)C(=O)N1 (stereo not drawn) | -12%
O=C(CN1CCC(NC(=O)c2cccc(F)c2)CC1)NCc1ccccc1F | 6%
CCN(CC)S(=O)(=O)c1ccc(NC2c3ncccc3C(=O)N2Cc2ccccc2)cc1 (stereo not drawn) | 78%
COc1ccc(C(C)C)cc1S(=O)(=O)Nc1ccc(Cl)cn1 | -6%
O=C(OCC(=O)N1CCCCC1)c1c[nH]c(=O)[nH]c1=O | 0%
CC(C)C12CN3CC(C(C)C)(CN(C1)C3c1ccccc1)C2O (stereo not drawn) | 9%
Cn1c(SCC(=O)c2ccccc2)nnc1C1CC1 | 2%
Cc1nc2ccc(S(=O)(=O)Nc3ccccc3C)cc2s1 | -3%
COc1ccccc1N1CCN(C(=O)CSc2nc(-c3ccccc3)cc(=O)[nH]2)CC1 | 101%
COc1cc(-c2nnc3sc(-c4cccnc4)nn23)cc(OC)c1OC | 15%
COCCCNS(=O)(=O)c1ccc2c(c1)OCCO2 | 7%
O=C(Oc1cccc(N2C(=O)CCC2=O)c1)C1CC(=O)N(c2ccc(F)cc2)C1 (stereo not drawn) | 19%
COc1cccc(Cn2nnc(C(=O)Nc3cc(C)ccc3OC)c2N)c1 | 4µM*[single pt active]
Cc1ccc(N2C(=O)c3ccc(N)cc3C2=O)cc1 | ?
CC(=O)Nc1ccc(C2(O)COc3ccccc3O2)cc1 (stereo not drawn) | -6%
NC(=O)C1(N2CCCCC2)CCN(CC(=O)Nc2cc(Cl)ccc2Cl)CC1 | 64%
COc1ccccc1N1CCN(c2ncnc3nc[nH]c23)CC1 | -9%
O=C(c1cc(Cl)ccc1Cl)N1CCN(c2ccccn2)CC1 | 16%
O=C(Nc1cccnc1)c1cn(-c2ccccc2)nc1-c1cccs1 | 45%
O=C(NC(Cc1ccccc1)C(=O)O)c1ccc(S(=O)(=O)N2CCCC2)cc1 (stereo not drawn) | 2%
CCN1CCc2nc(NC(=O)Cc3ccc4c(c3)OCCO4)sc2C1 | 21%
COc1cccc(C2CC(C(F)(F)F)n3ncc(C(=O)O)c3N2)c1 (stereo not drawn) | 5%
Cc1cc(C)n(CC(O)COc2cccc(OCC(O)Cn3nc(C)cc3C)c2)n1 (stereo not drawn) | 97%
O=C(CN1C2=NCCN2c2ccccc21)C12CC3CC(CC(C3)C1)C2 | 34%
Cn1nnnc1SCc1cc(=O)n2ccsc2n1 | 1%
CC(C)(C)NC(=O)Cn1nnc(-c2ccccc2Cl)n1 | -3%
Cc1ccc(C(c2sc3ncnn3c2O)N2CC(C)CC(C)C2)cc1 (stereo not drawn) | 81%
CCN1C(=O)C(O)(C2COC(C)(C)CC2=O)c2cc(Br)ccc21 (stereo not drawn) | 1%
N#Cc1ccccc1-n1c(N)c(C(=O)N2CCCC2)sc1=S | 22%
NC(=O)NC(=O)COC(=O)CCCc1c[nH]c2ccccc12 | 7%
CCOC(=O)c1[nH]c(C(=O)O)c(CCN(CC)CC)c1C | -2%
Cc1cn(C2C=CC(CO)O2)c(=O)[nH]c1=O (stereo not drawn) | 1%
COc1ccc(S(=O)(=O)N(C)CC(=O)O)c2ccccc12 | 5%
Cc1nonc1NC(=O)Nc1cccnc1 | 5%
O=C(c1cc(C(F)(F)F)cc(C(F)(F)F)c1)N1CCC2(CC1)CCN(c1ccncc1)CC2 | 69%
O=S(=O)(Nc1nc2ccccc2nc1NCCO)c1cccc(Cl)c1 | 28%
Cc1cc(C)nc(SCCCn2c(=O)[nH]c3ccccc32)n1 | 13%
CC1(C)CC(=O)c2c(nc3ccccc3c2N)C1 | ?
COCCn1c(=O)c(-c2cccc(F)c2)nc2cncnc21 | 14%
O=C(CSc1nc(-c2cccs2)cc(C(F)(F)F)n1)NCc1ccco1 | 4%
CCOC(=O)C1CCCN(C(=O)C2CC(=O)N(c3ccc(C)cc3)C2)C1 (stereo not drawn) | 12%
O=C(NC1CCCCCC1)c1ccc(N2CCCC2=O)cc1 | 5%
COc1ccc(CNC(=O)C2COc3ccccc3O2)c(OC)c1 (stereo not drawn) | 7%
Cn1c(SCc2nc3ccccc3[nH]2)nnc1-c1cccs1 | -10%
CCOc1ccc(NC(=O)c2ccc(N)cc2)cc1 | 2%
CCOc1ccc(NC(=O)CCS(=O)(=O)c2ccc3c(c2)CCCN3C(C)=O)cc1 | 8%
CC1CCCN(C(=O)CSCC(=O)N=c2sc3ccccc3n2C)C1 (stereo not drawn) | 54%
Cn1nnnc1SCc1cn2cccnc2n1 | -3%
N#CCC(=O)NCCCOC(=O)Nc1ccc(Cl)c(Cl)c1 | 8%
CCNC(=O)c1ccccc1-c1nc(-c2ccccc2Cl)no1 | 7%
NC(=O)c1cc(Cl)cn(-c2ccccc2)c1=O | 3.2µM*[single pt active]
CCCC(c1nnnn1C1CCCCC1)N1CCN(C2CCCC2)CC1 (stereo not drawn) | 15%
O=S(=O)(NCc1ccc2c(c1)OCO2)c1cccc(S(=O)(=O)N2CCOCC2)c1 | -1%
CC(=O)NCCNc1ncnc2ccc(-c3c(C)noc3C)cc12 | -1%
Cc1cccc(-c2nc(CSCC(=O)N3CCN(c4ccccn4)CC3)c(C)o2)c1 | 124%
COC(=O)CCN(C(=O)C1C2CC3CC(C2)CC1C3)c1ccccn1 (stereo not drawn) | 51%
O=C1CCCN1CC(CN1CCOCC1)Sc1nnnn1-c1ccccc1 (stereo not drawn) | 19%
CCCCN(CC)C(=O)Cc1c(C(=O)O)[nH]c2ccc(Cl)cc12 | -6%
Cc1ccc(C)c(S(=O)(=O)Nc2ccc(S(=O)(=O)Nc3onc(C)c3C)cc2)c1 | -23%
CCOC(=O)C1CCCN(c2ncnc3c2[nH]c2cccc(OC)c23)C1 (stereo not drawn) | 44%

Given as tab-separated lines: entries from further up.
SMILES	AmpC inh no det
Cn1nnnc1SCc1cn2cccnc2n1	-3%
CCNC(=O)c1ccccc1-c1nc(-c2ccccc2Cl)no1	7%
O=C1CCCN1CC(CN1CCOCC1)Sc1nnnn1-c1ccccc1 (stereo not drawn)	19%
CCCCN(CC)C(=O)Cc1c(C(=O)O)[nH]c2ccc(Cl)cc12	-6%
CC(=O)NCCNc1ncnc2ccc(-c3c(C)noc3C)cc12	-1%
CC1CCCN(C(=O)CSCC(=O)N=c2sc3ccccc3n2C)C1 (stereo not drawn)	54%

Other structures:
SMILES | AmpC inh no det
CCCCOC(=O)COc1ccc(Cl)cc1Cl | -4%
CCCc1nc2oc3c(NCCN4CCOCC4)ncnc3c2c2c1CCCC2 | 123%
CC(C)(C)c1ccc(OCC(=O)O)cc1 | -6%
CCn1c(SCC(=O)OC(C)C)nnc1-c1cccc(Cl)c1 | 3%
CCOC(=O)N1CCC(Nc2c(NCCN3CCN(Cc4ccccc4)CC3)c(=O)c2=O)CC1 | 3%
Cc1nc2nc(C)c(CCC(=O)N3CCc4ccccc43)c(C)n2n1 | 20%
COc1ccc2[nH]c(=O)c(CN(C(C)=O)c3cccc(C)c3)cc2c1 | 15%
COCCCNC(=O)C1C2C=CC3(CN(Cc4ccc(C)cc4)C(=O)C13)O2 (stereo not drawn) | -1%
N#CCCCSc1nnc(CSc2nc3ccccc3s2)n1-c1ccccc1 | 116%
Cc1ccc(C)c2[nH]c(=O)c(CN(CC3CCCO3)S(=O)(=O)c3ccc4c(c3)OCCO4)cc12 (stereo not drawn) | 97%
Cn1nnnc1CCOCCc1nnnn1C | -8%
